Source: PubChem BioAssay
Pol III holo inh – qHTS Assay for Inhibitors of DNA Polymerase III Holoenzyme System | reconstituted DNA polymerase III holoenzyme replication, biochemical | Potency, µM (titrated, usually from 57.1 µM), inactives show at the top dose activity change, negative = inhibition | 0.25% of 71,000 active; also: potency is read from the fitted curve at half-maximal effect; % is scaled to controls: 0 for no effect and ±100 for the full control effect
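Reconstituted *E. coli* holoenzyme (0.35 nM Pol III, 1 nM beta, 154 nM SSB, 2 nM primase) was preincubated with compound for 15 min at RT. Synthesis on 1.4 nM ssM13Gori ran 35 min, then was stopped with PicoGreen/EDTA and read as dsDNA fluorescence.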
BRCT inh green – qHTS Assay for Inhibitors of BRCT-Phosphoprotein Interaction (Green Fluorophore); BRCA1 BRCT-phosphopeptide binding, green fluorescence polarization; AID 875, 2007; 0.05% of 75,000 active; Potency, µM (doses to about 76.9 µM), without a hit: at the top dose activity change, negative = inhibition, most hits filed as inhibitors;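 also: potency is read from the fitted curve at half-maximal effect; plate controls were peptide without protein for full effect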
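Fluorescence polarization: His-tagged BRCT (~35 kDa BRCA1 C-terminus, 250 nM) bound to 100 nM fluorescein-labeled phosphorylated 10-aa BACH1 peptide, pH 7.3 phosphate buffer with DTT and Tween 20. Compounds incubated 12 min at room temperature; inhibition read as lowered polarization.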
ALOX15 inhib – qHTS Assay for Inhibitors of 15-hLO (15-human lipoxygenase); Polyunsaturated fatty acid lipoxygenase ALOX15 (Homo sapiens), P16050; purified 15hLO-1, xylenol orange hydroperoxide absorbance; Potency, µM (top dose mostly 57.1 µM), without a hit: at the top dose activity change, negative = inhibition, usual class: inhibitors; 1.4% of 74,000 active; AID 887, 2007; also: potency is read from the fitted curve at half-maximal effect; % is scaled to controls: 0 for no effect and ±100 for the full control effect; nearly all actives have a fitted effect of over 55% in size
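40 nM 15hLO-1 + cpd, 15 min RT; start w/ 50 uM AA (final), 6 min RT; stop/detect w/ 200 uM XO + 300 uM Fe(II) in 50 mM H2SO4, 30 min; A573/A405. Buffer 25 mM Hepes pH 7.5, 0.01% Triton X-100. No-enzyme wells as negative control.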
USP2a inh – qHTS Assay for Inhibitors of Ubiquitin-specific Protease USP2a; Ubiquitin carboxyl-terminal hydrolase 2 (Homo sapiens), O75604; USP2a enzymatic assay, qHTS inhibition; Potency, µM (doses to about 38.3 µM), for the others: at the highest dose activity change, negative = inhibition, hits mostly inhibitors; 0.1% of 60,000 active;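 also: potency is read from the fitted curve at half-maximal effect; nearly all actives have a fitted effect of over 60% in size; plate controls were DMSO for no effect and NEM full inhibition control for full effect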
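20 nM USP2 core + cpd, 30 min RT; add 20 nM Ub-PLA2/20 uM NBD C6-HPC; read Ex460/Em535 at 0 h and 2.5 h. Normalized to NEM; qHTS curve fit/classification.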
Rhodamine fluor – qHTS Assay for Spectroscopic Profiling in Rhodamine Spectral Region; Rhodamine-region fluorescence, 547/598 nm, Tris buffer; stronger effect = higher value; max dye-equivalent concentration, M; 0.05% of 59,000 active; in the data active = max dye-equivalent concentration above about 11 nM; inconclusive = between about 1.1 nM and that limit
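Compound fluorescence in 100 mM Tris, pH 8.0, read after 15 min at room temperature with 547 nm excitation and 598 nm emission. Output is dye-equivalent concentration from an on-plate rhodamine standard series.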
Tau fil binding – qHTS Assay for Tau Filament Binding | Microtubule-associated protein tau (Homo sapiens), P10636 | Potency, µM (top dose mostly 57.1 µM), for inactives: at the top dose activity change, negative = inhibition | AID 596, 2007 | recombinant tau filaments, thioflavin S fluorescence, 15 h; filaments grown with octadecylsulfate alongside compound | 2% of 71,000 active;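 also: potency is read from the fitted curve at half-maximal effect; % is scaled to controls: 0 for no effect and ±100 for the full control effect; actives lower thioflavin S fluorescence by blocking filaments or displacing dye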
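Recombinant tau protein (human, 1 uM final) plus 30 uM ODS in HEPES pH 7.4 with NaCl, DTT and thioflavine S. Compound present from the start; fluorescence at 510 nm after 15 h, 37 C.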
BRCT PPI red – qHTS Assay for Inhibitors of BRCT-Phosphoprotein Interaction (Red Fluorophore). BRCT-phosphopeptide binding, red fluorescence polarization. Potency, µM (top dose mostly 76.9 µM), for inactives: at the top dose activity change, negative = inhibition, most hits filed as inhibitors. 0.03% of 75,000 active; also: % is scaled to controls: 0 for no effect and ±100 for the full control effect
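Fluorescence polarization: 100 nM His-tagged BRCA1 BRCT with 100 nM TAMRA-labelled phospho-BACH1 decapeptide, phosphate buffer pH 7.3 with 150 mM NaCl, DTT, 0.01% Tween 20; 12 min RT. Binding inhibition seen as FP decrease.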
Casp1 inh – qHTS Assay for Allosteric/Competitive Inhibitors of Caspase-1; AID 900, 2007; P29466; 0.03% of 75,000 active; Potency, µM (doses to about 57.5 µM), for the others: at the highest dose activity change, negative = inhibition, hits mostly inhibitors; Caspase-1 enzyme, Ac-WEHD-AFC fluorogenic rate;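 also: potency is read from the fitted curve at half-maximal effect; plate controls were vehicle for no effect and no substrate for full effect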
Target sequence (P29466 120-297 limits assumed): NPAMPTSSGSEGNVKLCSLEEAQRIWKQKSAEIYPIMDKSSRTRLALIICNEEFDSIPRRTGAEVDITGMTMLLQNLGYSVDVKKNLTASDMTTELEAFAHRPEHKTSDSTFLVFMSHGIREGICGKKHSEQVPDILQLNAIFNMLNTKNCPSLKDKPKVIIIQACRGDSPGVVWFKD
Target sequence (P29466 317-404 limits assumed): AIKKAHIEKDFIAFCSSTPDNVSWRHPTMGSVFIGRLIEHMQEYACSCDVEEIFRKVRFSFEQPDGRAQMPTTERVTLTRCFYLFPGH
Casp7 inh – qHTS Assay for Allosteric/Competitive Inhibitors of Caspase-7 | recombinant caspase-7, Ac-DEVD-AFC fluorescence rate | 0.02% of 75,000 active | Potency, µM (highest dose often 57.5 µM), inactives show at the highest dose activity change, negative = inhibition, most hits filed as inhibitors | P55210 | AID 889, 2007; active = well fitted inhibition curve with a large enough effect in the main read-out, with a control signal flat, not every such curve was filed as active; inconclusive = small, poorly fitted or top-dose-only effect, or a change in a side signal; also: potency is read from the fitted curve at half-maximal effect; % of control where 0% means no effect
Target sequence (P55210 24-198 limits assumed): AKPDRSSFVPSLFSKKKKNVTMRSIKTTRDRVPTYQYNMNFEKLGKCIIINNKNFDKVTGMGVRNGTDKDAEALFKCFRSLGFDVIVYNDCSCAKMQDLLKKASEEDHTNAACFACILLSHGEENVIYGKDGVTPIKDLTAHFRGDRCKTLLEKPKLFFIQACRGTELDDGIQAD
Target sequence (P55210 207-303 limits assumed): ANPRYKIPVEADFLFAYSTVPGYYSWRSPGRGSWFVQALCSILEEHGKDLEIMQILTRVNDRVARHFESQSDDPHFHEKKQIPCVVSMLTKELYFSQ
Starred values were filed as active, the others as inactive; i = inactive; ? = inconclusive; · = not tested or not shown; & = joins results of further samples; ! = not confirmed by another sample; [ ] = remark or other dose. Unless noted, calls follow the shape of the dose curve; as a rule, active = well fitted curve in the direction sought with a large enough effect; inconclusive = small, poorly fitted or top-dose-only effect, or another doubt; inactive = no such curve, though single readings can be large; an effect the other way counts as inactive or inconclusive.

No. | canonical_smiles | Pol III holo inh | BRCT inh green | ALOX15 inhib | USP2a inh | Rhodamine fluor
1 | COc1cc(C)c(S(=O)(=O)NCc2ccc3c(c2)OCO3)cc1C | -3.2% | -1.8% | 1.3% | · | ·
2 | NC(N)=Nc1nc(CSCC/C(N)=N\S(N)(=O)=O)cs1 | · | -1.9%[3.08 µM] | 6.0% | -8.4% | ·
3 | CSCC[C@@H](C(=O)O)N1Cc2ccccc2C1=O | -4.7% | -2.3% | ? | · | ·
4 | C[C@@]12C(=O)OC(=O)[C@]1(C)[C@H]1CC[C@@H]2O1 | -4.6%[25.6 µM] | -1.7%[34.4 µM] | 21.1%[25.6 µM] | -2.2%[17.1 µM] | i
5 | CCCSc1ccc2nc(NC(=O)OC)[nH]c2c1 | -3.9%[25.6 µM] | 3.7%[3.08 µM] | -12.0% | 7.0% | i
6 | Cc1nn(-c2ccc(Cl)cc2)c2[nH]c(=O)c(CNCc3ccc4c(c3)OCO4)cc12 | 3.7% | 2.1% | -8.6% | 11.0% | i
7 | C[C@]12CC[C@@H]3c4ccc(O)cc4CC[C@H]3[C@@H]1CCC2=O | · | -1.8% | -4.9% | 2.9% | i
8 | CC1(C)OC(=O)C(C(c2ccccc2)C(C#N)C(N)=O)=C(O)O1 (stereo not given) | -0.4% | -1.4% | 0.8% | 3.0% | i
9 | Cc1cc(C)c(S(=O)(=O)Nc2cccnc2)c(C)c1 | -1.5% | -1.4% | 10.2% | · | i
10 | C[C@@](N)(Cc1ccc(O)c(O)c1)C(=O)O | 12.6µM*! | -3.4%[3.08 µM] | ? | -10.2% | i
11 | CCn1c(COc2cccc(C)c2)nnc1SCC(=O)Nc1cccc(C(=O)O)c1 | 2.2% | 1.0% | -4.4% | 1.7% | i
12 | O=C(NCc1ccc2c(c1)OCO2)c1cccc(N2CCCC2=O)c1 | -4.3% | 0.5% | 2.2% | 2.3% | i
13 | O=c1[nH]cnc2[nH]ncc12 | -1.0%&-18.1% | -1.6% | -0.3%&-0.5%&3.4% | -23.1%&-0.2% | i
14 | C=CCSc1n[nH]c(-c2ccc(OC)cc2)n1 | 4.1% | 0.0% | -12.4% | 5.0% | i
15 | COc1ccc(OC)c(-n2c(-c3cccc(O)c3)n[nH]c2=S)c1 | -10.8% | 0.9% | 2.51µM* | -4.6% | i

No. | Tau fil binding | BRCT PPI red | Casp1 inh | Casp7 inh
1 | 6.3% | 0.0% | -5.4% | -1.6%
2 | · | 0.6% | -0.9% | 0.8%
3 | -1.6% | 1.1% | -1.9% | -1.5%
4 | -10.9%[25.6 µM] | 0.0%[34.4 µM] | -2.2%[25.7 µM] | 0.9%[25.7 µM]
5 | -12.0%[25.6 µM] | -1.4% | 1.1% | -1.5%
6 | -19.7% | 1.3% | -2.1% | -0.7%
7 | · | -2.4% | 1.3% | 1.0%
8 | 4.1% | -0.7% | -1.3% | -0.8%
9 | -11.3% | -1.1% | 1.0% | 1.4%
10 | -6.7%[25.6 µM] | -2.7% | 0.0% | -10.6%
11 | 1.5% | -0.3% | 1.1% | -1.8%
12 | -38.0% | -0.4% | -1.5% | 0.9%
13 | -0.4%&9.4% | -0.2%&0.9%&1.1% | -2.8%&2.1%&-3.6% | 0.3%&0.1%&-1.5%
14 | 7.3% | -0.5% | 1.0% | 0.7%
15 | -12.6% | -0.8% | -1.4% | 1.0%

Reformatted with values under each structure: 6 of the compounds above.
Order of results: Pol III holo inh, BRCT inh green, ALOX15 inhib, USP2a inh, Rhodamine fluor, Tau fil binding, BRCT PPI red, Casp1 inh, Casp7 inh
5: CCCSc1ccc2nc(NC(=O)OC)[nH]c2c1
→ -3.9%[25.6 µM], 3.7%[3.08 µM], -12.0%, 7.0%, i, -12.0%[25.6 µM], -1.4%, 1.1%, -1.5%
6: Cc1nn(-c2ccc(Cl)cc2)c2[nH]c(=O)c(CNCc3ccc4c(c3)OCO4)cc12
→ 3.7%, 2.1%, -8.6%, 11.0%, i, -19.7%, 1.3%, -2.1%, -0.7%
2: NC(N)=Nc1nc(CSCC/C(N)=N\S(N)(=O)=O)cs1
→ ·, -1.9%[3.08 µM], 6.0%, -8.4%, ·, ·, 0.6%, -0.9%, 0.8%
13: O=c1[nH]cnc2[nH]ncc12
→ -1.0%&-18.1%, -1.6%, -0.3%&-0.5%&3.4%, -23.1%&-0.2%, i, -0.4%&9.4%, -0.2%&0.9%&1.1%, -2.8%&2.1%&-3.6%, 0.3%&0.1%&-1.5%
15: COc1ccc(OC)c(-n2c(-c3cccc(O)c3)n[nH]c2=S)c1
→ -10.8%, 0.9%, 2.51µM*, -4.6%, i, -12.6%, -0.8%, -1.4%, 1.0%
9: Cc1cc(C)c(S(=O)(=O)Nc2cccnc2)c(C)c1
→ -1.5%, -1.4%, 10.2%, ·, i, -11.3%, -1.1%, 1.0%, 1.4%

Additional results:
No. | canonical_smiles | Pol III holo inh | BRCT inh green | ALOX15 inhib | USP2a inh | Rhodamine fluor
16 | C[C@]12CCC3c4ccc(O)cc4CCC3C1CCC2=O (stereo not given in full) | · | -1.9%[3.08 µM] | -9.5% | 10.4% | ·
17 | COc1cc(NS(=O)(=O)c2ccc(N)cc2)nc(OC)n1 | -2.2%[25.6 µM] | 1.1%[3.08 µM] | 5.7% | 5.5% | i
18 | COC(=O)c1cccc(C(=O)Nc2cnc3ccccc3c2)n1 | -2.0% | 1.4% | 25.2% | 10.3% | i
19 | c1ccc2[nH]c(-c3cscn3)nc2c1 | -7.7% | 0.1% | 1.3% | 25.0% | i
20 | NC(N)=Nc1nc(CSCC/C(N)=N/S(N)(=O)=O)cs1 | -12.7%[25.6 µM] | -1.3%[34.4 µM] | 3.8%[25.6 µM] | -3.2%[17.1 µM] | i
21 | CCCCCCCCCCCCOS(=O)(=O)O | -9.9%&-6.9% | -0.1%&-1.0% | 2.7%&12.8% | · | ·
22 | C[C@@]12C=CC(=O)C=C1CC[C@@H]1[C@@H]2[C@H](O)C[C@]2(C)[C@@H]1CC[C@]2(O)C(=O)CO | -4.9%[25.6 µM] | 0.0%[34.4 µM] | -0.1%[25.6 µM] | -2.6%[17.1 µM] | i
23 | N#CCCN(CCC#N)C(=O)c1ccc2c(c1)OCO2 | 0.1% | -3.3% | 3.6% | -5.3% | i
24 | CC(=O)OCC(=O)[C@@]1(O)CC[C@H]2[C@@H]3CCC4=CC(=O)C=C[C@]4(C)[C@H]3[C@@H](O)C[C@@]21C | · | · | · | · | i
25 | CC(CCc1ccccc1)NCC(O)c1ccc(O)c(C(N)=O)c1 (stereo not given) | · | -1.8%[3.08 µM] | -1.9% | -3.6% | i
26 | Cc1ccc(OCc2nnc(SCC(=O)Nc3ccc4c(c3)OCCO4)n2Cc2ccco2)cc1 | 4.9% | -1.0% | -7.6% | 3.0% | i
27 | CCN(CC)S(=O)(=O)c1cc(C(=O)n2cccn2)c(Cl)cc1Cl | -0.4% | 0.3% | 6.9% | -3.8% | i
28 | COc1ccc(CNc2nc(-c3cccnc3)nn2C(=O)c2ccco2)cc1 | -5.3% | 0.3% | -1.1% | 13.1% | i
29 | CC1CN(C2CC(C)(C)NC(C)(C)C2)CCC1=O (stereo not given) | -3.7% | -5.3% | -14.5% | -0.8% | ·
30 | CS(=O)(=O)c1ccc([C@H](O)[C@H](CO)NC(=O)C(Cl)Cl)cc1 | 3.3%[25.6 µM] | -0.7%[34.4 µM] | 4.0%[25.6 µM] | -7.3%[17.1 µM] | i

No. | Tau fil binding | BRCT PPI red | Casp1 inh | Casp7 inh
16 | · | 1.9% | 1.6% | 1.5%
17 | -3.3%[25.6 µM] | -0.2% | 1.5% | -2.9%
18 | -6.3% | -0.4% | 0.8% | 3.4%
19 | 9.3% | -0.8% | -2.2% | -1.5%
20 | 2.2%[25.6 µM] | -0.3%[34.4 µM] | -1.1%[25.7 µM] | 0.8%[25.7 µM]
21 | 8.6%&6.7% | -1.3%&0.3% | -5.2%&-5.1% | -6.2%&-5.3%
22 | 2.9%[25.6 µM] | 0.6%[34.4 µM] | -0.5%[25.7 µM] | 0.9%[25.7 µM]
23 | -8.5% | 1.5% | -0.8% | -1.5%
24 | · | · | · | ·
25 | · | -0.1% | -2.0% | -0.3%
26 | 116.4% | -2.0% | -4.6% | -6.6%
27 | -9.7% | -2.3% | 0.6% | 1.2%
28 | 8.1% | -0.5% | -0.9% | -0.3%
29 | 9.4% | 0.0% | -2.6% | -1.4%
30 | -1.9%[25.6 µM] | -0.1%[34.4 µM] | -0.6%[25.7 µM] | 1.9%[25.7 µM]

A portion of the library; rates above refer to the full screens.
